# High-throughput results from PubChem BioAssay.
# p53 HeLa – p53 stabilisation in HPV-positive human cells, imaging, p53-positive nuclei imaging, 24 h, 48 h (AID 1508601); p53-positive nuclei, normalised, % at 11 µM unless noted; Cellular tumor antigen p53 (Homo sapiens); p53-positive nuclei imaging, 48 h; active compounds read high; some inactives read as strong as hits; actives 1% (n = 5,700);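 active = mean of two plates above 50% at 24 h or at 48 h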;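 note: HPV-positive HeLa cells with a fluorescent p53 stability reporter; 0% = vehicle and 100% = proteasome inhibitor control; doses worked out from stocks diluted about 900-fold with the highest of each compound shown; many of its hits are not listed in these tables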
# p53 HeLa cells 24 h – also measured in p53 HeLa; calls as there; nuclei count, normalised, %; measured here: cell number at 24 h;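 100% = vehicle wells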
# p53 HeLa p53 24 h – also measured in p53 HeLa; calls as there; p53-positive nuclei, normalised, %; measured here: p53 positive nuclei at 24 h;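 0% = vehicle and 100% = positive control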
# p53 HeLa cells 48 h – also measured in p53 HeLa; calls as there; nuclei count, normalised, %; measured here: cell number at 48 h;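 100% = vehicle wells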
# Numbers without * were called inactive; [ ] = remark or other dose.
SMILES,p53 HeLa,p53 HeLa cells 24 h,p53 HeLa p53 24 h,p53 HeLa cells 48 h
CC1CC[C@]2(C(=O)O)CC[C@]3(C)C(=CC[C@H]4[C@@]5(C)CC(O)C(O)[C@@](C)(CO)[C@@H]5CC[C@]43C)[C@H]2C1C (stereo partly drawn),0.0[3.7 µM],114,-0.3,106
Cc1c(C(=O)Nc2ccc(N3CC(C)OC(C)C3)nc2)cccc1-c1ccc(OC(F)(F)F)cc1 (stereo not drawn),0.6[3.7 µM],101,0.1,98
CCN(CCCOc1ccc2c(Nc3cc(CC(=O)Nc4cccc(F)c4)[nH]n3)ncnc2c1)CCOP(=O)(O)O,0.2,45,-0.1,27
O=C1c2ccc(Nc3ccc(F)cc3F)cc2CCc2ccc(OCC(O)CO)cc21 (stereo not drawn),0.0[3.7 µM],115,-0.4,112
Cc1ccc(Cl)cc1N(CC(=O)Nc1c(F)cccc1F)S(C)(=O)=O,-0.1[3.7 µM],105,-0.4,98
C=C1c2cccc(O)c2C(O)=C2C(=O)[C@]3(O)C(O)=C(C(N)=O)C(=O)C(N(C)C)[C@@H]3C(O)[C@H]12 (stereo partly drawn),-0.1[3.7 µM],107,-0.3,107
COc1cc(C)c(Sc2cnc(NC(=O)c3ccc(CNC(C)C(C)C)cc3)s2)cc1C(=O)N1CCN(C(C)=O)CC1 (stereo not drawn),-0.2,100,-0.1,99
Cc1[nH]c(C=C2C(=O)Nc3ccccc32)c(C)c1CCC(=O)O,-0.2[3.7 µM],106,4.5,140
CCC(=O)O[C@@]1(C(=O)SCF)C(C)C[C@H]2[C@@H]3CC(F)C4=CC(=O)C=C[C@]4(C)[C@]3(F)C(O)C[C@@]21C (stereo partly drawn),0.1[3.7 µM],109,-0.2,113
Cc1nc2ccc(-n3ncc(C(=O)c4cc5ccccc5[nH]4)c3N)cc2[nH]1,0.0,78,0.2,63
O=C(O)CN1C(=O)c2cccc3cccc(c23)C1=O,-0.1,102,0.1,104
O=c1cc[nH]c(=O)[nH]1,0.0[3.7 µM],109,-0.3,107
c1ccc2c(CC3=NCCN3)cccc2c1,-0.2[3.7 µM],118,-0.5,114
CC(C)(C)c1cnc(CSc2cnc(NC(=O)C3CCNCC3)s2)o1,11,39,0.3,24
O=C(NCC(O)CO)c1ccncc1Nc1ccc(I)cc1F (stereo not drawn),-0.7[3.7 µM],90,-0.3,94
CC(Oc1ccc2[nH]nc(C=Cc3cnn(CCO)c3)c2c1)c1c(Cl)cncc1Cl (stereo not drawn),17,33,2.7,22
COc1c(O)cc2c(c1O)[C@@H]1OC(CO)C(O)C(O)[C@@H]1OC2=O (stereo partly drawn),0.1,111,0.1,105
CC1Oc2cc(cnc2N)-c2c(nn(C)c2C#N)CN(C)C(=O)c2ccc(F)cc21 (stereo not drawn),-0.2,115,-0.1,119
COc1cc(N2CCC(N3CCN(C)CC3)CC2)ccc1Nc1ncc(Cl)c(-c2c[nH]c3ccccc23)n1,-0.1,88,0.0,94
CC(=O)Nc1nc(C)c(-c2ccc(Cl)c(S(=O)(=O)NCCO)c2)s1,-0.1,86,0.0,89
O=C(O)COC(=O)Cc1ccccc1Nc1c(Cl)cccc1Cl,-0.1,109,-0.1,113
CCN1CCN(Cc2ccc(-c3cc4c(NC(C)c5ccccc5)ncnc4[nH]3)cc2)CC1 (stereo not drawn),-0.5[3.7 µM],85,-0.2,88
CCOc1ccn(-c2ccc(F)cc2)c(=O)c1C(=O)Nc1ccc(Oc2ccnc(N)c2Cl)c(F)c1,0.0,103,0.2,103
Cc1nnc(NS(=O)(=O)c2ccc(N)cc2)s1,-0.1[3.7 µM],104,-0.2,102
COc1cc(N2CCC(N3CCN(C)CC3)CC2)ccc1Nc1ncc(Cl)c(Nc2ccccc2S(=O)(=O)C(C)C)n1,0.4,46,0.2,28

# Remaining list, next part:
SMILES,p53 HeLa,p53 HeLa cells 24 h,p53 HeLa p53 24 h,p53 HeLa cells 48 h
CNC(=O)c1cc(Oc2ccc(NC(=O)Nc3cc(C(C)(C)C)nn3-c3ccc4ncccc4c3)c(F)c2)ccn1,-0.2,96,0.0,105
CC(NCc1ccc(OCc2cccc(F)c2)cc1)C(N)=O (stereo not drawn),-0.7[3.7 µM],114,-0.3,106
Nc1nccs1,0.1[3.7 µM],97,-0.3,95
COc1cc(Nc2c(C#N)cnc3cc(OCCCN4CCN(C)CC4)c(OC)cc23)c(Cl)cc1Cl,3.2,58,0.0,50
CC(Nc1ncnc2nc[nH]c12)c1cc2cccc(Cl)c2c(=O)n1-c1ccccc1 (stereo not drawn),0.0,108,0.1,98
COc1cc2nc(N3CCN(C(=O)C4COc5ccccc5O4)CC3)nc(N)c2cc1OC (stereo not drawn),-0.7[3.7 µM],111,-0.4,106
CCC1C(=O)N(C)c2cnc(Nc3ccc(C(=O)NC4CCC(N5CCN(CC6CC6)CC5)CC4)cc3OC)nc2N1C(C)C (stereo not drawn),8.1,35,3.7,24
OCC1OC(c2ccc(Cl)c(Cc3ccc(OC4CCOC4)cc3)c2)C(O)C(O)C1O (stereo not drawn),0.0,108,0.0,110
O=C(CNC(=O)c1cccc(C(F)(F)F)c1)NC1CCN(Cc2ccc(Cl)cc2)C1 (stereo not drawn),-0.1,111,-0.1,113
N#Cc1c(Oc2ccc(F)c(NC(=O)Cc3cccc(C(F)(F)F)c3)c2)ccc2nc(NC(=O)C3CC3)sc12,0.0,80,-0.2,73
CCOC(=O)C(CCc1ccccc1)NC1CSC(c2cccs2)CN(CC(=O)O)C1=O (stereo not drawn),-0.3[3.7 µM],102,-0.5,100
N=C(N=C(N)N)N1CCOCC1,-0.2[3.7 µM],116,-0.2,112
OC1(c2ccc(Cl)c(C(F)(F)F)c2)CCN(CCCC(c2ccc(F)cc2)c2ccc(F)cc2)CC1,0.2[3.7 µM],106,0.6,108
Cc1coc2c1C(=O)C(=O)c1c-2ccc2c1CCCC2(C)C,-0.2[3.7 µM],109,-0.2,110
CN1CCc2c(c3ccccc3n2Cc2ccc(C(=O)NO)cc2)C1,-0.1,114,-0.2,107
Cn1c(Nc2ccc(C(F)(F)F)cc2)nc2cc(Oc3ccnc(-c4ncc(C(F)(F)F)[nH]4)c3)ccc21,-0.1,90,-0.2,79
COc1cc2c(Oc3ccc4[nH]c(C)cc4c3F)ncnc2cc1OCCCN1CCCC1,0.4,68,0.1,61
CC(C)n1cnc2c(NCCc3ccc(O)cc3)nc(-c3csc4ccccc34)nc21,-0.2[3.7 µM],115,-0.6,107
COc1ccccc1OCC(O)COC(N)=O (stereo not drawn),0.0[3.7 µM],110,-0.2,108
COc1cc(OC)c2c(=O)[nH]c(-c3cc(C)c(OCCO)c(C)c3)nc2c1,-0.2,109,-0.2,108
Cn1nccc1Nc1nccc(-c2ccn(C(CO)c3ccc(Cl)c(F)c3)c(=O)c2)n1 (stereo not drawn),0.4,98,0.0,103
CNC1CN(c2ccc3c(=O)c(C(=O)O)cn(-c4nccs4)c3n2)CC1OC (stereo not drawn),0.4[3.7 µM],51,0.0,44
COc1cc(N2CCC(N3CCN(C)CC3)CC2)ccc1Nc1ncnc(Nc2ccccc2S(=O)(=O)C(C)C)n1,-0.2,90,0.0,94
O=C(c1cc(Cc2n[nH]c(=O)c3ccccc23)ccc1F)N1CCN(C(=O)C2CC2)CC1,-0.2,73,-0.1,50
Nc1nc(Nc2ccc(S(N)(=O)=O)cc2)nn1C(=O)c1c(F)cccc1F,9.3[3.7 µM],49,0.8,26

# (further entries)
SMILES,p53 HeLa,p53 HeLa cells 24 h,p53 HeLa p53 24 h,p53 HeLa cells 48 h
CC(C)CC(=O)Nc1n[nH]c2c1CN(C(=O)C1CCN(C)CC1)C2(C)C,3.8,39,0.5,23
CC(C)Cc1ccc(C(C)C(=O)O)cc1 (stereo not drawn),-0.2[3.7 µM],75,-0.5,73
CC1=NN(c2ccccc2)C(=O)C1,-0.5[3.7 µM],106,-0.2,108
CC1(O)CC(c2nc(-c3ccc4ccc(-c5ccccc5)nc4c3)c3c(N)nccn23)C1 (stereo not drawn),-0.2,92,0.0,99
Cc1nc(NC(=O)N2CCCC2C(N)=O)sc1-c1ccnc(C(C)(C)C(F)(F)F)c1 (stereo not drawn),-0.1,105,0.0,114
COc1cccc(-c2cc(F)ccc2C2Cc3nc(N)nc(C)c3C(=O)N2)n1 (stereo not drawn),-0.1[3.7 µM],49,-0.2,40
CCNc1nc(Nc2cc(F)c(C(=O)N3CCOCC3)cc2OC)ncc1C(F)(F)F,-0.1,86,0.0,96
CC(C)CC(C(=O)NC(C(=O)OC1CCCC1)c1ccccc1)C(O)C(=O)NO (stereo not drawn),-0.1,97,0.2,94
CN1CCC(=C2c3ccccc3CCc3sccc32)CC1,-0.2[3.7 µM],113,-0.6,102

# Laid out differently: 2 of the compounds above
SMILES	p53 HeLa	p53 HeLa cells 24 h	p53 HeLa p53 24 h	p53 HeLa cells 48 h
CC1(O)CC(c2nc(-c3ccc4ccc(-c5ccccc5)nc4c3)c3c(N)nccn23)C1 (stereo not drawn)	-0.2	92	0.0	99
Cc1nc(NC(=O)N2CCCC2C(N)=O)sc1-c1ccnc(C(C)(C)C(F)(F)F)c1 (stereo not drawn)	-0.1	105	0.0	114

# In the list so far, 13 have a Cl atom.
SMILES,p53 HeLa,p53 HeLa cells 24 h,p53 HeLa p53 24 h,p53 HeLa cells 48 h
Cc1ccc(Cl)cc1N(CC(=O)Nc1c(F)cccc1F)S(C)(=O)=O,-0.1[3.7 µM],105,-0.4,98
CC(Oc1ccc2[nH]nc(C=Cc3cnn(CCO)c3)c2c1)c1c(Cl)cncc1Cl (stereo not drawn),17,33,2.7,22
COc1cc(N2CCC(N3CCN(C)CC3)CC2)ccc1Nc1ncc(Cl)c(-c2c[nH]c3ccccc23)n1,-0.1,88,0.0,94
CC(=O)Nc1nc(C)c(-c2ccc(Cl)c(S(=O)(=O)NCCO)c2)s1,-0.1,86,0.0,89
O=C(O)COC(=O)Cc1ccccc1Nc1c(Cl)cccc1Cl,-0.1,109,-0.1,113
CCOc1ccn(-c2ccc(F)cc2)c(=O)c1C(=O)Nc1ccc(Oc2ccnc(N)c2Cl)c(F)c1,0.0,103,0.2,103
COc1cc(N2CCC(N3CCN(C)CC3)CC2)ccc1Nc1ncc(Cl)c(Nc2ccccc2S(=O)(=O)C(C)C)n1,0.4,46,0.2,28
COc1cc(Nc2c(C#N)cnc3cc(OCCCN4CCN(C)CC4)c(OC)cc23)c(Cl)cc1Cl,3.2,58,0.0,50
CC(Nc1ncnc2nc[nH]c12)c1cc2cccc(Cl)c2c(=O)n1-c1ccccc1 (stereo not drawn),0.0,108,0.1,98
OCC1OC(c2ccc(Cl)c(Cc3ccc(OC4CCOC4)cc3)c2)C(O)C(O)C1O (stereo not drawn),0.0,108,0.0,110
O=C(CNC(=O)c1cccc(C(F)(F)F)c1)NC1CCN(Cc2ccc(Cl)cc2)C1 (stereo not drawn),-0.1,111,-0.1,113
OC1(c2ccc(Cl)c(C(F)(F)F)c2)CCN(CCCC(c2ccc(F)cc2)c2ccc(F)cc2)CC1,0.2[3.7 µM],106,0.6,108
Cn1nccc1Nc1nccc(-c2ccn(C(CO)c3ccc(Cl)c(F)c3)c(=O)c2)n1 (stereo not drawn),0.4,98,0.0,103

# Some of the compounds tested. The share of hits here may be higher or lower than overall.
